# Compound activity as filed in PubChem.
# HMGR II inh = inhibitors of E. faecalis class II HMGR, primary screen, biochemical, Enterococcus faecalis; HMG-CoA reductase (Enterococcus faecalis, mvaE); purified E. faecalis HMGR, NADPH absorbance 340 nm kinetic; inhibition, % at 10 µM; actives 0.41% (n = 190,000); AID 1066, 2008;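 active = inhibition above a set limit, the median over all tested compounds plus 3 SD, cut at about 9.5% in these data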;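 also: enzyme runs in reverse so mevalonate oxidation gives rising NADPH absorbance; 0% = complete reaction with DMSO and 100% = background rate lacking mevalonate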
# Diaph inh CS = diaphorase inhibitors and chemical oxidizers, primary screen, counter-screen for diaphorase-coupled primary assays, biochemical, uHTS, resorufin fluorescence. diaphorase resazurin-to-resorufin fluorescence, NADH, 16 min; bacterial (C. kluyveri) enzyme, not human. inhibition, % at 20 µM. actives 0.69% (n = 190,000). AID 1217, 2008;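 active = primary screen inhibition at 20 µM above a set limit, cut at about 50% in these data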;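 also: plate controls were DMSO with full reaction for no effect and wells lacking NADH for full effect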
#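 Test system: Clostridium kluyveri diaphorase enzyme / Quantity: diaphorase at 0.14 U/mL in enzyme working solution / Incubation: 16-min room-temperature incubation before reading / Benchmarks: NADH-free wells as positive control, DMSO-only neutral wells / Signal: resorufin fluorescence 544/590 nm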
# TNAP act hi DEA = TNAP activators at high phosphate acceptor level, primary screen, biochemical, luminescence, uHTS | Alkaline phosphatase, tissue-nonspecific isozyme (Homo sapiens), P05186 | purified TNAP, CDP-star luminescence, 1 M DEA, 30 min; stronger effect = higher value; 0 = EDTA background, 1 = DMSO-only activity | activation factor at 20 µM | 200,000 tested, under 10 active;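 active = activation factor at least 2 at 20 µM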
# Target sequence (P05186 whole entry, looked up): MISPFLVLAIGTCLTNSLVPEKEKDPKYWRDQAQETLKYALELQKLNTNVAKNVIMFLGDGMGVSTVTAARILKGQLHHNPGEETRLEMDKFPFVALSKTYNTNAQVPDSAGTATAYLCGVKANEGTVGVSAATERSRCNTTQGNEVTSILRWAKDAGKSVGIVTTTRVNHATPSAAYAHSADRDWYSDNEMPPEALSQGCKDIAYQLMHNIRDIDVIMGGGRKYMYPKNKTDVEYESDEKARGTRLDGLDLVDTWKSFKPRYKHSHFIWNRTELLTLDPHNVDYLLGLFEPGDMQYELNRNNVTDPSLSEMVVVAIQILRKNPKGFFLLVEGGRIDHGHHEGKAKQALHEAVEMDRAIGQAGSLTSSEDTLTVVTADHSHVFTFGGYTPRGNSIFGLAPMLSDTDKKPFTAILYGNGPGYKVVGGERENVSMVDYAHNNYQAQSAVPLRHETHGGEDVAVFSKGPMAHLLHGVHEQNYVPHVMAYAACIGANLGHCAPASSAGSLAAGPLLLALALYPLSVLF
#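 Assay system: human TNAP; Input: enzyme diluted 1/800 final; Reagent: CDP-star luminogenic substrate at 100 µM final; Timing: 30 min, room temperature; Signal: luminescence; Evaluation: TNAP activation factor scaled between EDTA and DMSO control wells.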
# TNAP inh noacc = human TNAP enzyme inhibitors, primary screen, biochemical, luminescent, no phosphate acceptor, uHTS | inhibition, % at 20 µM | actives 0.26% (n = 200,000) | purified TNAP, CDP-star luminescence, 30 min | Alkaline phosphatase, tissue-nonspecific isozyme (Homo sapiens), P05186 | AID 1012, 2008;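 active = tissue-nonspecific alkaline phosphatase inhibition above about 50% at 20 µM in the single-dose screen, limit read from the data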;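 also: 0% = DMSO negative control and 100% = EDTA positive control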
# TNAP inh hiacc = human TNAP enzyme inhibitors, primary screen, biochemical, luminescent, high phosphate acceptor level, uHTS | Alkaline phosphatase, tissue-nonspecific isozyme (Homo sapiens), P05186 | purified TNAP, CDP-star luminescence, 1 M DEA | inhibition, % at 20 µM | actives 0.03% (n = 200,000) | AID 1135, 2008;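 active = over 50% inhibition of tissue-nonspecific alkaline phosphatase at 20 µM in the single-dose screen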;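 also: plate controls were DMSO wells for no effect and EDTA-quenched wells as full inhibition for full effect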
# FLuc stim CS = FLuc activators, initial screening, artefact control for FLuc-dependent activation tests, biochemical, ATPlite luminescence | AID 1027, 2008 | activation factor at 10 µM | 200,000 tested, under 10 active | Luciferin 4-monooxygenase (Photinus pyralis), P08659 | ATPlite luciferase biochemical, 10 min; 0 = ATP-free wells, 1 = DMSO control;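 active = luciferase activation factor, scaled between plate controls, of at least 2 with compound at 10 µM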
# Target sequence (P08659 whole entry, looked up): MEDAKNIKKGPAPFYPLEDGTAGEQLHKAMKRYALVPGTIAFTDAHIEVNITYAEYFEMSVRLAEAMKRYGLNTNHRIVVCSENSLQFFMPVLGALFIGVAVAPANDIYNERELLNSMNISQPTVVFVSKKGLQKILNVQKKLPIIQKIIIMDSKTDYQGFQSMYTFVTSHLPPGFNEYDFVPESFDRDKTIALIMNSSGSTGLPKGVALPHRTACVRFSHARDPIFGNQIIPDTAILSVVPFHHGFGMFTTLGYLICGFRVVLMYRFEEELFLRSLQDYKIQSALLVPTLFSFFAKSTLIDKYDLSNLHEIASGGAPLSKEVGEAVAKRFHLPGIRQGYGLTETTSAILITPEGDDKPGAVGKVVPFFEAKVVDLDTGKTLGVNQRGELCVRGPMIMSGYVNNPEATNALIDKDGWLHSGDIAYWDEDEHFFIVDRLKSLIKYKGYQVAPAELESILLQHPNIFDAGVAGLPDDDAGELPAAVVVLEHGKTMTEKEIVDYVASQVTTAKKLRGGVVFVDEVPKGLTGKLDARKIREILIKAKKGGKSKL
#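 Assay system: Luciferase/luciferin detection reagent, cell-free biochemical luciferase assay / Read-out: luciferase activation / Benchmarks: No-ATP low control, compound-free enzyme-plus-ATP high control / Medium: PBS buffer for ATP / Detection: luminescence measurement of luciferase light output / Schedule: 10 min at ambient temperature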
# G6PDH counter = L. mesenteroides G6PDH inhibitors, counter-screen for G6PDH-coupled screening assays, biochemical, Leuconostoc mesenteroides enzyme; glucose-6-phosphate dehydrogenase [Leuconostoc mesenteroides]; Purified L. mesenteroides G6PDH, diaphorase/resazurin coupled fluorescence, 45 min; inhibition, % at 5 µM; actives 0.12% (n = 200,000); AID 1020, 2008; in the data active = inhibition above about 50%
# * = called active by the depositor; x = no result given.
# The line under a structure holds: HMGR II inh	Diaph inh CS	TNAP act hi DEA	TNAP inh noacc	TNAP inh hiacc	FLuc stim CS	G6PDH counter
CC1(C)CC(=O)C=C(NCc2ccc(Cl)c(Cl)c2)C1
    2	14	1	-8	-4	1.1	-4
Cc1oc(-c2cccs2)nc1CS(=O)CC(=O)NCCCOC(C)C (stereo not drawn)
    -3	12	1.1	-19	-6	1.1	4
Cc1cccc(Cn2cnc3c(nnn3Cc3ccc(Cl)cc3)c2=O)c1
    -3	3	1	-6	0	1.1	4
Cc1cccc(Nc2nnc(-c3ccc(C(=O)N4C[C@H]5C[C@H](C4)c4cccc(=O)n4C5)cc3)c3ccccc23)c1
    -2	7	1.1	-16	-9	1	6
Cc1cc(=O)oc2cc(NC(=O)CCC(=O)O)ccc12
    -1	3	1	-2	-4	1.1	7
Cc1ccc(SCc2nc(-c3cccnc3)no2)cc1
    -1	13	1	-4	0	1	0
O=C(N/N=C/c1c(Cl)cccc1Cl)c1cccc(F)c1
    -4	6	1	-7	-1	1	0
O=C(Nc1ccc(Cl)cc1)OCc1cn(-c2ccc(Cl)cc2)nn1
    -1	5	1.1	-13	-7	1.1	0
O=C(NCc1ccccc1)c1cnc2n(c1=O)CCS2
    -3	8	1	-8	-1	1.1	0
Cc1ccc(S(=O)(=O)NCC(=O)OC(C)C(=O)Nc2ncc(Cl)cc2Cl)cc1 (stereo not drawn)
    0	11	1	-9	-5	1.1	-1
CCCCCn1nc(-c2ccccc2)c2nc3ccccc3nc21
    3	18	1.1	-9	-6	1.1	-6
Cc1cc(C(=O)N/N=C/C=C/c2ccc3c(c2)OCO3)n[nH]1
    -1	10	1	-155	0	0.9	4
Cc1cccc2c1OCC/C2=N\NC(=O)COc1ccccc1Cl
    -6	-2	1	-2	2	0.9	20
O=C(NCc1ccccc1)c1sc(=S)n2c1[nH]c(=O)c1ccccc12
    -7	73*	1	-5	0	1.1	8
Cc1ccc(F)cc1NC(=O)C12CC3CC(C1)CC(n1cnc([N+](=O)[O-])n1)(C3)C2
    8	5	1	-7	-1	1.1	2
O=C(CSc1nnc(-c2cccnc2)o1)Oc1ccccc1
    -4	6	1	2	-2	1.1	12
CCCOc1cccc(-c2cc(-c3n[nH]c(=S)n3CC)c3ccccc3n2)c1
    1	19	1	10	1	1	3
CCCSc1nc(SCC(=O)NCc2ccccc2)c2c3c(sc2n1)COC(C)(C)C3
    -9	-19	1.1	-11	-10	1	9
COc1cc(C2/C(=C(/O)c3ccc(F)cc3)C(=O)C(=O)N2CCCC(=O)O)ccc1O (stereo not drawn)
    -9	9	1	0	0	1.1	7
CCN(C(=O)COc1cc(=O)n(CC)c2ccccc12)c1cc(Cl)ccc1OC
    -9	26	1	-15	-4	1	-5
Cc1cccc(NC(=S)NC2CC3CCC(C2)N3Cc2ccco2)c1C (stereo not drawn)
    -3	10	1	-13	-3	1	6
CCCNC(=O)N1CCC(C(=O)c2ccc(F)cc2)CC1
    -3	2	1	-8	-1	1.1	1
CCOCCCn1c(=N)c(C(=O)NCc2ccc3c(c2)OCO3)cc2c(=O)n3cccc(C)c3nc21
    -6	-3	1	5	0	1.1	-8
Cc1ccc(Nc2cc(=O)n(C3CCCCC3)c(=O)[nH]2)cc1C
    -6	7	1	-2	-1	1	6
O=C(NC(=S)Nc1ccc(N2CCCCC2)c(Cl)c1)c1ccc2c(c1)OCCO2
    1	22	1	4	0	1	3
O=C(c1c(F)cccc1F)N1CCN(c2ccccc2F)CC1
    -2	12	1	-6	-4	1	7
O=C(OCc1ccc(C(=O)c2ccccc2)cc1)c1cccc(-c2nnc(-c3ccccc3)o2)c1
    -2	6	1	-3	-4	1	3
Cc1ccc(CNC(=O)CCNC(=O)c2ccco2)cc1
    -4	6	1	-3	-4	1.1	8
Cc1sc2ncnc(N3CCN(c4ncccn4)CC3)c2c1C
    -7	34	1.1	-8	-10	1.1	7
COc1cccc(Nc2ncc(C(=O)O)c3ccccc23)c1
    5	10	1	-13	-4	1	3
Cc1cc(C)nc(/N=C(\N)Nc2ccc(F)c([N+](=O)[O-])c2)n1
    2	6	1	-4	-2	1.1	-5
Cc1nnc(SCc2ccc(F)cc2Cl)s1
    6	-2	1	-10	-1	0.9	5
COC(=O)c1cn(NC(=O)c2cccc(OC)c2)c(=O)c2ccccc12
    -4	0	1.1	5	-5	1.1	11
COc1ccc(-c2[nH]c(-c3ccc(C(=O)O)cc3)nc2-c2ccccc2)cc1
    x	14	1	-6	0	1	3
Cc1cnc(C(=O)OCC(=O)N(C(C)C)C(C)C)cn1
    -2	8	1	-6	-4	1	1
CCn1c(CC(=O)Nc2ccc(C)c(Cl)c2)nnc1SCc1ccc(Cl)c(Cl)c1
    -6	-4	1	-6	-4	1	5
O=C(Nc1ccc(F)cc1)Nc1nnc(-c2ccncc2)s1
    -5	7	1	-2	1	1	-2
CC(=O)Nc1ccc(NCN2C(=O)C3C4CCC(C4)C3C2=O)cc1 (stereo not drawn)
    -6	8	1	-2	4	1	6
CCOc1cc(/C=N/O)ccc1OS(=O)(=O)c1ccc(C)cc1
    0	18	1	0	-1	1.1	8
O=C(O)CN=C1NC2(CCCC2)Cc2ccccc21
    4	6	1	-3	-1	1.1	9
O=S(=O)(c1cccc2nsnc12)N1CCN(c2ncccn2)CC1
    2	3	1	6	-1	1.1	-15
O=C(Nc1ccc(Cc2ccncc2)cc1)c1ccc(S(=O)(=O)N2CCOCC2)cc1
    4	6	1	-10	-3	1.1	1
C=C(C)C1Cc2nc(N)nc(C)c2C1 (stereo not drawn)
    -7	4	1	-5	0	1	5
Cc1ccc(C(=O)C(OC(=O)CNC(=O)c2ccc(Cl)cc2)c2ccccc2)cc1 (stereo not drawn)
    4	22	1.1	0	-7	1.1	0
CC(C)CCNC(=O)CN(C(=O)Cn1nnc(-c2ccccc2F)n1)c1cccc2c1CCCC2
    -2	21	1.2	-106	-22	1.1	6
O=S(=O)(NC1CCCCC1NCc1ccco1)c1ccc(Cl)cc1 (stereo not drawn)
    3	15	1	-5	-4	1.1	9
CCC(C)n1c(C)nc2c(c1=O)c1nc3ccccc3nc1n2CCC1=CCCCC1 (stereo not drawn)
    -4	64*	1.1	-11	-6	1	-1
CN1C(=O)CC(NNC(=O)c2ccc(Cl)cc2)C1=O (stereo not drawn)
    -6	12	1	-7	0	1	2
Cc1ccc(NC2=C(C(=O)c3ccccc3)N(C)S(=O)(=O)c3ccccc32)cc1
    -3	18	0.9	7	8	1.1	10
CC(=O)OCP(C)(=O)COC(C)=O
    0	4	1.1	-13	-6	1.1	-1
CCOC(=O)NC(NC(=O)OCC)C(=O)c1ccccc1
    -6	22	1	-10	-4	1.1	2
CCn1c(NCc2cc(Br)ccc2NS(=O)(=O)c2ccc(C)cc2)nc2ccccc21
    0	19	1.1	-38	-10	1.1	4
Cc1c(C(=O)O)sc2nc(C)n(C)c(=O)c12
    0	3	1	4	-1	1	4
Nc1cccnc1Sc1ccc(Cl)cc1
    1	11	1.1	-12	-6	1.1	1
CCOC(=O)Cn1nc(C)n(-c2ccc(C(C)(C)C)cc2)c1=O
    0	17	1	-8	-3	1	4
Cc1n[nH]c(=S)c2nn(-c3ccccc3)c(C)c12
    -5	13	1	-10	-4	1.1	2
COc1c(Cl)cnn(-c2ccc(C)cc2)c1=O
    -1	-2	1.1	4	-6	1	23
CCOC(=O)c1c(C)[nH]c2c1cc(O)c1ccccc12
    -1	40	1	-8	-1	1	37
CCc1ccc(NCCC(=O)c2ccc(Cl)cc2)cc1
    -3	-3	1	2	-1	1.1	18
O=[N+]([O-])c1ccc2nccn2c1
    0	10	1	-11	-2	1.1	-4

# Next section.
# The line under a structure holds: HMGR II inh	Diaph inh CS	TNAP act hi DEA	TNAP inh noacc	TNAP inh hiacc	FLuc stim CS	G6PDH counter
O=C(c1ccc2c(c1)C(=O)N(Cc1ccco1)C2=O)N1CCOCC1
    0	12	1	-4	3	1	0
O=C(Nc1ccccc1)c1ccc(Cn2cc(C(F)(F)F)ccc2=O)cc1
    -2	16	1	-7	-4	1.1	0
N#CC1=C(N)Oc2c(oc(CO)cc2=O)C12C(=O)Nc1ccc(Cl)cc12 (stereo not drawn)
    -1	9	1.1	-13	-5	1.1	6
O=C(NCC1CCCO1)C1CCN(S(=O)(=O)N2CCCC2)CC1 (stereo not drawn)
    -3	19	1.1	-11	-5	1.1	-3
COC(=O)N(C)c1ccccc1C(=O)N1CCOCC1
    0	6	1	-12	-3	1.1	-1
CC1CCN(CCCCOc2ccccc2[N+](=O)[O-])CC1
    -4	31	1	-8	-3	1.1	1
CCCCCNCc1ccc(Br)cc1
    4	25	1	-9	-4	1.1	0
O=C(COC(=O)c1ccccc1Nc1ccc(SC(F)F)cc1)NCc1ccco1
    -4	23	1	0	-3	1.1	7
Cc1cccc(-n2c(C)cc(/C=N/n3cnnc3)c2C)c1
    -1	-6	1	-8	-4	1	0
CCCCCCNCc1cccc(Br)c1
    -5	-7	1	-12	-2	1	6
Cc1ccc(NC(=O)c2c(C(F)(F)F)nn(C)c2Cl)cc1C
    -8	22	1	-10	-2	1	6
CCNC(=S)NS(=O)(=O)c1ccccc1
    0	9	1.1	-18	-5	1.1	-5
CCC(C)Sc1nnc(CSc2nc3nc(C)cc(C)n3n2)o1 (stereo not drawn)
    1	12	1	-10	-3	1	13
Cc1ccc(-n2c(Cc3cccn3C)nnc2SCC(=O)N2CCc3ccccc32)cc1
    1	13	1	-8	1	1.1	1
COCc1cc(C)nc(OCC(=O)N/N=C/c2ccc(-c3cccc([N+](=O)[O-])c3)o2)c1C#N
    -4	26	1	0	-4	1	2
CON1C(=O)C(=O)N(OC)C2CCCCC21 (stereo not drawn)
    -1	7	1	-6	-2	1	4
O=C(O)CCc1nn2c3ccccc3nc2n(CCN2CCCCC2)c1=O
    4	6	1	-4	-1	1.1	4
O=C(Nc1ccc2oc(=O)ccc2c1)c1cccnc1Cl
    -6	12	1	4	-2	1	9

# Four of the compounds above, as comma-separated lines:
structure,HMGR II inh,Diaph inh CS,TNAP act hi DEA,TNAP inh noacc,TNAP inh hiacc,FLuc stim CS,G6PDH counter
N#CC1=C(N)Oc2c(oc(CO)cc2=O)C12C(=O)Nc1ccc(Cl)cc12 (stereo not drawn),-1,9,1.1,-13,-5,1.1,6
O=C(NCC1CCCO1)C1CCN(S(=O)(=O)N2CCCC2)CC1 (stereo not drawn),-3,19,1.1,-11,-5,1.1,-3
COC(=O)N(C)c1ccccc1C(=O)N1CCOCC1,0,6,1,-12,-3,1.1,-1
CC1CCN(CCCCOc2ccccc2[N+](=O)[O-])CC1,-4,31,1,-8,-3,1.1,1

# This is a subset (hit frequency here may not be typical).
